# gsp antag – qHTS for Antagonists of gsp, the Etiologic Mutation Responsible for Fibrous Dysplasia/McCune-Albright Syndrome: qHTS; gsp-mutant cells, cAMP HTRF, 30 min; control for the full effect not named in the record; Potency, µM (highest dose often 76.9 µM), inactives show top-dose activity change, negative = inhibition, hits mostly inhibitors; hit rate 0.4% among 340,000; AID 624288, 2012; active = falling curve of any shape with a large fitted effect; inconclusive = falling curve, mostly with a smaller effect; inactive = flat or rising curve; cell line not stated here;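 also: intracellular cAMP measured with PDE inhibitor Ro 20-1724 present during compound exposure; potency is read from the fitted curve at half-maximal effect; % is scaled to controls: 0 for no effect and ±100 for the full control effect; nearly all actives have a fitted effect of over 65% in size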
#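 Cells, 2000/well, grown 16–24 h in DMEM 10% FBS with 0.5 mg/ml G418, then compounds plus […] (300 uM addition stock), 30 min at 37C. cAMP read by HTRF (cAMP-d2 and anti-cAMP antibody-K in lysis buffer) after 30 min RT.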
# gsp ag – qHTS for Agonist of gsp, the Etiologic Mutation Responsible for Fibrous Dysplasia/McCune-Albright Syndrome: qHTS; gsp mutant cells, cAMP HTRF, 30 min; control for the full effect not named in the record; Potency, µM (titrated, usually from 76.9 µM), for the others: at the top dose activation (cAMP increase), hits mostly activators; hit rate 0.13% among 340,000; active = well fitted activation curve with a large enough effect; inconclusive = small, poorly fitted or top-dose-only effect, or another doubt; inactive = no such curve, though single readings can be large or run the other way; cell line not stated here;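 also: phosphodiesterase inhibitor Ro 20-1724 added with compounds to block cAMP breakdown; potency is read from the fitted curve at half-maximal effect; nearly all actives have a fitted effect of over 60% in size; about a fifth of the inactives were tested at one dose only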
#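 Cells in DMEM/10% FBS with G418 were pretreated with compounds in DMSO plus […] (300 uM stock) for 30 min at 37C. cAMP was measured by HTRF (cAMP-d2 plus anti-cAMP antibody-K) after 30 min at room temperature.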
# Sfp inh – qHTS Assay for Inhibitors of Bacillus subtilis Sfp phosphopantetheinyl transferase (PPTase); Biochemical Sfp PPTase activity, qHTS; Potency, µM, inactives show max response, negative = inhibition, most hits filed as inhibitors; hit rate 3.5% among 310,000; AID 1490, 2009; active = well fitted inhibition curve with a large enough effect; inconclusive = small, poorly fitted or top-dose-only effect, or another doubt; inactive = no such curve, though single readings can be large or run the other way;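 also: the enzyme is Sfp with the accession as filed and its product quenches rhodamine fluorescence; potency is read from the fitted curve at half-maximal effect; 0% = enzyme reaction without inhibitor and -100% = no enzyme wells; top concentration of the series not given in the record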
#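 Step 1, compound plus 15 nM Sfp-PPTase, 15 min, room temperature. Step 2, add rhodamine-CoA (5 uM) and BHQ-2-YbbR (12.5 uM). Step 3, read 525/598 nm fluorescence at 0 and 30 min.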
# Menin-MLL FL inh – qHTS Assay for Inhibitors Targeting the Menin-MLL Interaction in MLL Related Leukemias: Competition With Fluorescein Labeled MLL-derived Peptide. Fluorescence polarization, fluorescein-MLL peptide displacement from menin. FP activity change, % at 61.4 µM. 290,000 tested, under 10 active; inconclusive = falling polarisation curve, or a change in total fluorescence; inactive = total fluorescence flat and polarisation flat or rising; no compound was filed as active; the % refers to the polarisation; negative = inhibition;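 also: % of control where 0% means no effect; inhibitors lower the polarisation; unlabelled MLL peptide was the positive control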
# D2 agonist – Beta-Arrestin HTS for Positive Allosteric Modulators of the Human D2 Dopamine Receptor: Agonists. AID 624465, 2012. hit rate 0.084% among 360,000. DiscoveRx PathHunter D2 beta-arrestin, luminescence, 90 min; 100% = 57 uM dopamine signal. activation, % (no concentration beside the values). D(2) dopamine receptor (Homo sapiens), P14416; in the data active = activation above about 40%; inconclusive = about 15% to 40%; inactive = below about 15%; also: compound concentration not given in the record; the text of the record calls up to 30% inactive
# Target sequence (P14416 whole entry, looked up): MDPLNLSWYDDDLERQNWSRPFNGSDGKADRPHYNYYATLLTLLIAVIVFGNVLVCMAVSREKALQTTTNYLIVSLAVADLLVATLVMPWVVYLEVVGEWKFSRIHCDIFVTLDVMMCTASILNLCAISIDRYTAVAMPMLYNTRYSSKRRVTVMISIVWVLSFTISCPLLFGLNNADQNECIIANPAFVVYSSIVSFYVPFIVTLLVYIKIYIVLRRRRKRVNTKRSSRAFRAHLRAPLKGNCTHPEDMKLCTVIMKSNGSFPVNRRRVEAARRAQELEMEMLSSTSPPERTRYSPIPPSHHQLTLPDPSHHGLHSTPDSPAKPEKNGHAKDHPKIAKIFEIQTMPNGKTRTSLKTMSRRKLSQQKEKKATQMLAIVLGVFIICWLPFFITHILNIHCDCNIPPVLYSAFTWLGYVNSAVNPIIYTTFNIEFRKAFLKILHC
#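 Agonist mode: compounds alone added to overnight-plated D2 PathHunter cells for 90 min at 37 C, with 57 uM final dopamine (EC100) defining full response. Beta-arrestin recruitment detected by chemiluminescent reagent, read after 1 h at ambient temperature.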
# ClpP mod – qHTS Assay for Activators of ClpP; ATP-dependent Clp protease proteolytic subunit (Bacillus subtilis (strain 168)), P80244; purified B. subtilis ClpP, FRET peptide cleavage, 20 min; Potency, µM (top dose mostly 57.5 µM), for the others: at the highest dose activity change, negative = active; hit rate 1.9% among 340,000; active = well fitted falling curve with a large enough effect; inconclusive = small, poorly fitted or top-dose-only effect; inactive = no such curve, though single readings can be large or run the other way; also: potency is read from the fitted curve at half-maximal effect; the source files actives as falling curves though it sought activators and does not explain the sign; nearly all actives have a fitted effect of over 65% in size; many hits overshoot -100%
# Target sequence (P80244 whole entry, looked up): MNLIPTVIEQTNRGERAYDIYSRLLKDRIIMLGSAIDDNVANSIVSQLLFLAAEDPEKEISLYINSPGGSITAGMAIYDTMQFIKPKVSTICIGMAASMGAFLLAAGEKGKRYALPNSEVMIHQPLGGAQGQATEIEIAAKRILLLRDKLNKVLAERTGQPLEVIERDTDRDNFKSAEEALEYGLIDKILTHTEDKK
#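 ClpP 10 microg/mL final, pH 8 Tris/KCl buffer with BSA, glycerol, Tween-20; compound pinned in; FRET-FV substrate; RT 20 min; Ex320/Em430; ΔFRET vs ADEP 5.8 microM, DMSO, no enzyme.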
# PINK1 expr mod – A Quantitative High throughput Screen to Identify Chemical Modulators of PINK1 Expression. PINK1 immunofluorescence, high-content cytometry, 24 h. Potency, µM (series often up to 76.6 µM), for inactives: at the top dose activation (PINK1 increase), actives largely listed as activators. hit rate 0.2% among 410,000. AID 624263, 2012; active = well fitted activation curve with a large enough effect; inconclusive = small, poorly fitted or top-dose-only effect; inactive = flat fitted curve, though single readings scatter; cell line not stated here;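 also: potency is read from the fitted curve at half-maximal effect; % of control where 0% means no effect; nearly all actives have a fitted effect of over 65% in size; a mitochondrial uncoupler was the plate control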
#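 Readout is PINK1 immunofluorescence, quantified alongside mitochondrial, cell and nuclear markers by laser-scanning microplate cytometry. Cells from a stable line were exposed to compound titrations (5 concentrations) for 24 hours, with CCCP controls.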
# The depositor's hits bear a star; ? = inconclusive; · = no result given; [ ] = another dose, or the depositor's remark.
SMILES,gsp antag,gsp ag,Sfp inh,Menin-MLL FL inh,D2 agonist,ClpP mod,PINK1 expr mod
COc1ccc(NC(=O)c2ccccc2C)c(OC)c1,-3%,-23%,15%,-0.1,0.0,-3.6%,-1.3%[38.3 µM]
COc1cccc(C2CC(=O)Nc3n[nH]c(-c4ccccc4)c32)c1OC (configuration not stated),-4%,-11%[15.4 µM],-2%,-0.6,3.1,·,2.2%
CC(C)OC(=O)CSc1ncnc2c1cnn2Cc1ccccc1,7%,26%,-3%,0.2,-0.6,0.5%,2.1%
Cc1cccc(-c2noc(CCCC(=O)N3CCOCC3)n2)c1,10%,30%,24%,-2.5,-1.4,0.6%,0.3%[38.3 µM]
Cc1oc2c(C)c3oc(=O)c4c(c3cc2c1C)CCC4,8%,-10%[15.4 µM],12%,0.7,5.3,1.0%,0.6%
O=C1Nc2ccc(F)cc2C12Nc1ccccc1-c1nnc(SCc3ccccc3)nc1O2 (configuration not stated),-2%,-13%,-14%,?,-14,32%,-0.8%[38.3 µM]
CCOP(=O)(OCC)C(NC(=O)c1cccs1)C(F)(F)F (configuration not stated),3%,-2%,-16%,-1.0,-1.2,·,-0.7%
Cc1noc(C)c1-c1cc(Nc2ccc(F)cc2)ncn1,·,·,5%,0.7,·,·,-2.0%
CCCCCCSc1nsc(N)n1,-8%,19%,3%,2.2,-2.4,-2.1%,1.3%
Cc1cccc(NC(=O)C2C3C=CC4(O3)C2C(=O)N(CCCN2CCCC2)C4C(=O)NC2CCCC(C)C2C)c1 (configuration not stated),-22%,-2%,4%,1.8,-0.7,·,-0.1%
CCOC(=O)C(CC)c1cc2n(c(=O)c1C#N)CCC21OCCO1 (configuration not stated),·,·,·,·,-7.2,4.3%,4.4%
COCc1cc(C)nc(OCC(=O)N/N=C/c2ccc(O)cc2O)c1C#N,-1%,?,26%,-1.5,0.2,·,0.0%
Cc1ccccc1C(=O)NNC(=O)C1CCN(c2ncccn2)CC1,2%,3%[15.4 µM],-9%,0.8,-1.5,·,1.0%
CN(C)c1cccc(C(=O)NNC(=S)NC2CC3CCC2C3)c1 (configuration not stated),-16%,17%[15.4 µM],12%,-2.8,-5.6,-4.4%,2.2%
CCCN1/C(=C(/C#N)C2=NS(=O)(=O)c3ccccc32)N(C)c2ccccc21,-4%,-7%,20%,0.1,-2.8,1.6%,2.2%[38.3 µM]
S=c1[nH]ccc2ccccc12,28%,5µM*,·,·,6.6,-4.2%,-2.5%
COC(=O)COc1ccc(S(=O)(=O)N2CCN(c3ccccc3)CC2)cc1,-26%,-11%,-1%,-0.4,-1.3,·,9.5%
Cc1nc(NS(=O)(=O)c2ccccc2C)c2c3c(sc2n1)CCC3,-15%,2%,9%,3.2,-2.6,-25%,-1.0%
Cc1ccc2c(c1)c(C)c(C)n2CC(O)Cn1nc(C)c(Br)c1C (configuration not stated),-11%,9%,9%,3.2,-2.6,-21%,14%
COc1cccc(/C=C/C(=O)OCC(=O)Nc2ccc3c(c2)OCO3)c1,·,17%,·,·,-1.5,-27%,-0.2%
Cc1ccc(-c2ccccc2NC(=O)CS(=O)CC(=O)Nc2ccc(C)c(Cl)c2)o1 (configuration not stated),-3%,-26%,6%,2.4,7.0,-0.4%,9.2%
CSCCC(NC(=O)c1ccccc1)C(=O)N1CCN(Cc2ccc(Cl)cc2)CC1 (configuration not stated),-25%,-3%[15.4 µM],·,·,2.3,·,0.4%
CS(=O)(=O)N(CC(=O)N1CCCCC1)c1ccc(Cl)c(C(F)(F)F)c1,2%,0%,13%,6.9,-1.1,0.0%,15%[38.3 µM]
Clc1nssc1=Nc1ccccc1,2%,-2%[15.4 µM],20µM*,1.0,-4.3,-2.8%,1.2%
O=C(CNC(=O)C(c1ccccc1)c1ccccc1)N/N=C\c1cccc(O)c1,-6%,-16%,6%,1.0,-1.2,-1.8%,5.4%
CCOC(=O)C1NN=C(C(=O)c2ccccc2)C1c1ccc(Cl)cc1 (configuration not stated),-11%,-7%[15.4 µM],-3%,9.3,-5.1,·,16%
Fc1ccc(/C=N/n2c(-c3cccs3)n[nH]c2=S)cc1,-19%,1%,50µM*,0.2,-1.3,-0.7%,1.5%[38.3 µM]
O=C(c1ccc(-c2ccc(Cl)cc2)o1)N1CCN(S(=O)(=O)c2cccs2)CC1,?,-13%,·,·,-4.3,?,0.8%
COc1ccc(NC(=O)c2ccc3c(c2)C(=O)N(CC2CCCO2)C3=O)c(OC)c1 (configuration not stated),-3%,7%,16%,6.6,4.6,·,2.1%
COc1cccc2cc(C(=O)NCc3ccc(C)cc3)c(=N)oc12,-3%,-62%[inhibitor],8%,?,-4.2,-3.1%,0.3%
O=C(CCN1C(=O)CSc2ccccc21)Nc1ccc(OC(F)(F)F)cc1,1%,-35%,·,·,-1.1,-0.9%,1.0%
O=C1c2ccccc2S(=O)(=O)c2cc(C(=O)N3CCN(c4c(Cl)cncc4Cl)CC3)ccc21,2%,21%,·,·,1.9,0.6%,1.6%
CCc1ccc(NC(=O)NC(C)c2ccc3c(c2)OCO3)cc1 (configuration not stated),2%,-1%,2%,·,-2.8,-2.0%,0.5%
COc1ccc(OC)c(C2NC(=O)N(C)C(C)=C2C(=O)OCc2ccccc2)c1 (configuration not stated),-6%,-22%,5%,4.2,-1.5,0.9%,0.9%
Cc1ccc(C)c(N2CCN(S(=O)(=O)c3c(C(=O)N4CCCCC4)c(C)n(C)c3C)CC2)c1,-19%,10%,19%,·,?,0.9%,2.5%
CCN1CCCC1CNC(=O)c1cc([N+](=O)[O-])c(N(C)C)cc1OC (configuration not stated),6%,?,14%,0.4,-3.7,-1.1%,3.1%
O=C(O)c1cc(N/N=C/c2ccc(OCc3ccccc3)cc2)ccc1Cl,12%,-9%[15.4 µM],-7%,2.7,2.6,-3.2%,-0.5%
CCC(C)[C@H](NS(=O)(=O)c1ccc(C)cc1)C(=O)N1CCC(C(=O)N[C@H](C(=O)O)c2ccccc2)CC1 (some centres not stated),9%,·,1%,-2.4,-2.0,1.5%,-0.4%
COCCN(C(=O)COC(=O)c1c(NC(C)=O)sc(C)c1C)c1c(N)n(Cc2ccccc2)c(=O)[nH]c1=O,-11%,5%,·,·,-8.0,-4.9%,2.8%
Cc1nc(N2CCOCC2)nc(N2CCCC2)c1[N+](=O)[O-],3%,14%,4%,0.7,-3.2,-2.7%,-1.0%
Cc1nn(-c2ccc(C(=O)O)cc2)c2c1C(=O)CC(C)(C)C2,-21%,1%[15.4 µM],29%,-0.2,2.6,·,1.3%
COCCNC(=O)c1cccc2c1-c1ccccc1C2=O,16%,14%[15.4 µM],5%,-0.6,-1.3,-0.2%,-1.3%
Cc1ccccc1C(=O)Nc1ccnn1C1CCN(CCCc2ccccc2)CC1,9%,-30%,10%,·,?,1.6%,0.5%
CC(C)(C)c1ccc(OCC(=O)Nc2ccc(C(=O)Nc3ccccc3C(=O)O)cc2)cc1,?,1%[15.4 µM],3%,-4.3,3.6,1.5%,3.5%
CCC(Sc1nnnn1-c1ccccc1)C(=O)NC(C)c1ccccc1 (configuration not stated),-3%,?,16%,-0.9,-0.6,-0.8%,2.4%[38.3 µM]
Cc1cc(-c2nnc(CCC(=O)N3CCN(Cc4cccnc4)CC3)o2)c(C)o1,-4%,-16%[15.4 µM],10%,4.4,-3.0,·,0.1%
CCN(CC)S(=O)(=O)c1cccc(NC(=O)c2ccc(C#N)cc2)c1,-9%,?,4%,0.5,-2.9,·,0.9%
Cc1cc(NC(=O)c2ccc3nc(-c4ccccc4)c(-c4ccccc4)nc3c2)no1,4%,?,22%,3.6,-2.1,?,17%[38.3 µM]
COc1ccc(-c2csc(N3CCC(c4ccccc4)C3)n2)cc1 (configuration not stated),12%,-19%,-5%,7.2,-1.0,-0.2%,6.2%
Nc1nc(CCl)nc(Nc2cccc3ccccc23)n1,18%,-6%,13%,4.4,2.2,3.4%,-2.0%
O=C(CSc1nc2c(c(=O)[nH]1)CN(Cc1ccc(F)cc1)CC2)Nc1ccc(F)cc1,-13%,-3%,20%,8.5,-1.9,-1.3%,9.1%
Cc1cccc(OCc2nnc(SCc3cc(=O)n4cc(Br)ccc4n3)o2)c1,-5%,?,-5%,2.6,-1.9,-7.5%,-0.4%
Cc1ccc(S(=O)(=O)N2CCN(C3CC(=O)N(c4ccc(F)cc4)C3=O)CC2)cc1C (configuration not stated),-3%,?,·,·,-1.5,1.2%,0.6%
COc1ccc(-c2noc(-c3ccccc3F)n2)cc1,-11%,-2%,-9%,0.5,1.2,-8.4%,2.0%
CCOC(=O)/C=C/[C@H]1CC(c2ccccc2)(c2ccccc2)CO1,-10%,-29%,·,·,-1.4,3.2%,1.4%
Cc1ccc2c(Cl)c(C(=O)Nc3cc(C)on3)sc2c1,10%,0%,12%,0.6,-1.1,-0.3%,1.5%
COc1ccc(-c2cc(C(=O)Nc3nc4c(C)cccc4s3)c3ccccc3n2)cc1OC,-5%,?,-8%,8.5,3.7,-5.0%,?
O=C(CCn1nc(-c2ccc(Cl)cc2)c2ccccc2c1=O)NCCN1CCOCC1,-8%,18%,4%,-0.7,-4.8,-7.6%,0.6%
O=C(Nc1ccc(Oc2ncnc3cc(Cl)ccc23)nc1)c1ccc(F)cc1,14%,-18%[15.4 µM],19%,-2.2,0.2,1.3%,1.1%

# Hits appear at their usual frequency; 5.1% or so of the library scored in one or more.
